# Tgondii IFNg = T. gondii growth inhibition under IFN-gamma | Toxoplasma gondii growth in IFN-gamma-treated host cells; stronger effect = lower value; reference of the scale not given here | activity change, negative = inhibition, %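 (about 20 µM by stock and volumes)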 | 3.8% of 69,000 active | AID 1259416;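 active = below -70%; inconclusive = fit judged invalid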;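 note: host cells are HeLa cells infected with Toxoplasma gondii; parasite growth read as luciferase light; one replicate is shown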
# Active calls of the source: *; ? = inconclusive; & = joins results of further samples. Some of the compounds tested; rates above refer to the full screens.
# Start of the listing, in advance (4 entries):
SMILES,Tgondii IFNg
O=C(CCc1ccc2[nH]ccc2c1)NCc1cccnc1,3.2
COc1ccccc1NC(=O)c1nnn(Cc2nc(-c3ccc(C)cc3)oc2C)c1C,-82.9*
Cc1nn(C)cc1C(C)NC1CCN(c2ccc(C(=O)NC3CCCC3)cc2)CC1 (stereo unspecified),6.8
CCn1nc(CNC(=O)Cc2csc(C)n2)c2ccccc21,2.6

# Results, from the first entry:
SMILES,Tgondii IFNg
O=C(CCc1ccc2[nH]ccc2c1)NCc1cccnc1,3.2
COc1ccccc1NC(=O)c1nnn(Cc2nc(-c3ccc(C)cc3)oc2C)c1C,-82.9*
Cc1nn(C)cc1C(C)NC1CCN(c2ccc(C(=O)NC3CCCC3)cc2)CC1 (stereo unspecified),6.8
CCn1nc(CNC(=O)Cc2csc(C)n2)c2ccccc21,2.6
Cc1cccc(NC(=O)c2ccc3nnc(C4CN(c5ncccn5)CCN4C)n3c2)c1 (stereo unspecified),-21.7
CC(=O)Nc1ccc(Oc2ccccc2)cc1,-9.3
CC(=O)Nc1ccc2nc(CN3CCCN(C(=O)C4CCC4)CC3)ccc2c1,7.0
COc1ccc(S(=O)(=O)NCCc2sc(-c3cccc(C)c3)nc2C)cc1OC,266.4
CCC/C=C/c1nc2ccccc2n1CCO,-48.7
COc1ccc(S(=O)(=O)N(C)C[C@H]2Oc3ccc(NC(=O)Cc4cn(C)c5ccccc45)cc3C(=O)N([C@@H](C)CO)C[C@H]2C)cc1,-26.7
Cc1cc(C(F)(F)F)nn1CC(=O)Nc1sc2c(c1C#N)CCCCC2,3.1
O=C1N[C@@H](Cc2ccccc2)COCc2cn(nn2)CC[C@@H]1Cc1cccc(F)c1,57.4
COCC(=O)N1CC(C(=O)NCC2CC2)C2(CCOCC2)C1 (stereo unspecified),-35.9
CCS(=O)(=O)N1CCC2(CC1)OC(=O)C(C)=C2C(=O)NCCN1CCCC1,21.7
CN(CC(=O)c1ccc(O)cc1)C(=O)c1cccc(N2CCOCC2)c1,-57.9
CO[C@H]1CN(C)C(=O)c2ccc(NC(=O)Nc3ccccc3)cc2OC[C@@H](C)N(C(=O)CC2CC2)C[C@@H]1C,91.6
CNCc1nncn1-c1cccc(C(C)=O)c1,-1.1
COc1cc(N2CCC3(CC2)C(=O)N(C)CCN3CC(C)C)ncn1,-50.0
O=C(NC1CC2(CCN(Cc3ccccc3Cl)CC2)C1)C1CC1,-3.2
CC(=O)NCC(=O)N1CCC2O[C@@H](COc3cccnc3)CCC21 (stereo partly specified),-53.4
Cc1nc(CC(NC(=O)c2cc(C(C)(C)C)[nH]n2)c2ccc(Cl)cc2)cc(=O)[nH]1 (stereo unspecified),7.1
NC(=O)c1ccc(-c2csnn2)cc1,-43.8
COc1cccc(OC2OC3COC(C)(C)OC3C(O)C2NC(C)=O)c1 (stereo unspecified),1.8
CC(C)C1CN(c2ccnc3ccccc23)CCC(=O)N1CC1CC1 (stereo unspecified),2.0
O=C(OC1C(OC(=O)c2cccnc2)C(OC(=O)c2cccnc2)C(OC(=O)c2cccnc2)C(OC(=O)c2cccnc2)C1OC(=O)c1cccnc1)c1cccnc1 (stereo unspecified),15.2&-8.2

# Remaining list, next part.
SMILES,Tgondii IFNg
CCN1C(=O)N(CCCc2cccnc2)C(=O)C12CCN(CCC1=C(C)CCCC1(C)C)CC2,7.5
C=CCN1CC2(CCN(C(=O)C3CCOCC3)CC2)OCC1=O,10.1
CO[C@@H](CN(C)S(=O)(=O)c1cccc(Cl)c1)[C@@H](C)CN(C(=O)Nc1ccccc1F)[C@H](C)CO,-31.9
O=C(C[C@@H]1CC[C@H]2[C@@H](COC[C@@H](O)CN2CCC(F)(F)F)O1)NCc1ccc2c(c1)OCO2,-10.4
CCCNC(=O)C[C@H]1CC[C@@H]2[C@@H](COc3ccc(NC(=O)CC)cc3C(=O)N2C)O1,-11.2
COc1ccc2sc(NC(=O)Cc3c(C)nc4nc[nH]n4c3=O)nc2c1,21.3
CC(=O)O[C@H]1C[C@@]2(C)[C@@H](C[C@@H](O)C3[C@]2(C)CC[C@H]2[C@H](C)[C@H](O)CC[C@]32C)/C1=C(/CCC=C(C)C)C(=O)O (stereo partly specified),-52.1&-33.5
C#CC(CC)(CC)NC(=O)Nc1cnccc1C(F)(F)F,40.1
CCN1CCN(Cc2cc(C(=O)N3CCC(N)C3)no2)CC1 (stereo unspecified),16.3
O=C1NCC[C@]12CN(Cc1nccs1)C[C@H]2c1ccccc1,-30.1
Cc1ccc(C2=NC3(CCN(CC(=O)Nc4cc(C)cc(C)c4)CC3)NC2=O)cc1,68.8
CC(Cc1ccc2c(c1)OCO2)c1c(-c2ccccc2)ncn1CCO (stereo unspecified),-66.8
CN1CCCC(CN2CCN(Cc3cc4n(n3)CCNC4)CC2)C1 (stereo unspecified),-0.2
CCN1CCn2c(C)cnc2C12CCN(C(=O)c1ccco1)CC2,-11.2
CCC(=O)NCc1ccccc1-c1ccccc1CO,-38.6
Cc1cccc(N(C(=O)Nc2cccc(Cl)c2)C2=NCC(C)(C)S2)c1,37.6
COc1ccc(OCC(O)CN(Cc2ccccc2)Cc2ccccc2)cc1 (stereo unspecified),-45.2
CCC1=NC2(CCC(C(=O)NCc3ccccc3)CC2)C(=O)N1CC1CC1 (stereo unspecified),7.2
CC1=CC[C@@H]2CN(C(=O)c3ccc(Cn4cnnn4)cc3)C[C@@H]2C1,6.4
CCOCC12CCCOC1CCN(C(=O)C1=CCCC1)C2 (stereo unspecified),25.9
CC(c1ccccc1-n1cccn1)N1Cc2ncccc2C1=O (stereo unspecified),-15.1
CC(=O)N1CC[C@H]2OCC[C@]2(C(=O)NCCc2ccccn2)C1,8.5
c1ccc(C[C@H]2CN3CCC[C@H]3CN2Cc2nc3ccccc3[nH]2)cc1,-28.9
Cc1cccc(C)c1NC(=O)Cn1c(=O)cc(C(=O)N2CCCCC2)c2ccccc21,13.4
O=C1CCCN1CC1CCN(C(=O)c2ccc(N3CC=CC3)nc2)CC1,5.2

# Next part
SMILES,Tgondii IFNg
CCc1nn(C)c(NC(=O)c2cccc(CN3CCCC3C)c2)c1CC (stereo unspecified),1.0
Cc1cc(C)n(C2CCN(c3nc(N(C)C)nc(C)c3C)C2)n1 (stereo unspecified),-9.6
CCOc1ccc2c(c1)C(c1ccc(F)cc1)=NNC(c1ccc(Cl)cc1)=N2,-34.5
CCCC(=O)NCC1CCC(c2nc(C)ncc2-c2ccncc2)CC1 (stereo unspecified),13.6
CCc1ccccc1Nc1ncnc2c1cnn2-c1ccc(C)cc1C,11.2
CCN1CCC2(CN(CCOC)CC23CCN(S(=O)(=O)c2cccs2)CC3)C1=O (stereo unspecified),8.7
CCCn1nnc(NC(=O)Cc2ccccc2)n1,34.3
Cc1ncc(C(=O)N(C)C)c(-c2ccc(CNC(=O)c3sc(C)nc3C)cc2)n1,77.8
OCCCn1cnc(-c2ccccc2)c1-c1ccccc1Cn1cccn1,-7.1
CCc1ccc(NC(=O)N2CC[C@@H]3Oc4ccccc4S(=O)(=O)N(C)[C@@H]3CC2)cc1,2.2
COc1ccccc1C(=O)N1CCN(Cc2cccc3nccnc23)CC1,9.3
Cc1c(Cl)cccc1NC(=O)c1c(O)c2ccccc2[nH]c1=O,302.6
O=C(C[C@H]1CC[C@@H]2[C@H](COC[C@H](O)CN2Cc2ccc(C(F)(F)F)cc2)O1)N1CCc2ccccc2C1,-5.5
CC=Cc1ccc2n(c1=O)C[C@@H]1[C@@H](CO)[C@H](C(=O)NCc3cccc(OC)c3)N[C@H]21 (mixture of isomers),1.9
CN(Cc1ccccn1)C(=O)C[C@]12COC[C@H]1CN(c1ncccn1)C2,47.0
COc1ccc(OCC(=O)N2CCC3(CC2)Nc2cccnc2NC3=NC2CCCC2)cc1,127.8
Cc1cc(CN2Cc3ccccc3C3(CCN(c4cnccn4)CC3)C2)oc1C,33.5
C/C=C/c1ccccc1[C@@H]1[C@@H](CO)N(C(=O)CN2CCOCC2)[C@H]1C#N,18.7
COCC1C(=O)NCC12CCN(Cc1cc(C)on1)CC2 (stereo unspecified),-14.1
C[C@H](CO)N1C[C@H](C)[C@@H](CN(C)S(=O)(=O)c2cccc(F)c2)Oc2ncc(C#CC3(O)CCCC3)cc2C1=O,167.5
Cc1noc(C)c1CN1CC2(CCN(C(=O)NC(C)C)C2)CC1=O (stereo unspecified),3.3
Cc1cc(C)n(-c2nnc(Cl)c3ccccc23)n1,-46.1
CCOc1ccc(C2c3[nH]c4ccccc4c3CCN2Cc2cnc(SC)nc2)cc1 (stereo unspecified),46.1
Cc1nc(C(F)(F)F)ccc1C(=O)Sc1ccc(F)cc1,-1.1
Cc1cc(C(=O)N2Cc3cnc(CC(C)C)nc3C2)c2c(C)noc2n1,0.2

# As entered above:
# Tgondii IFNg, CCc1ccccc1Nc1ncnc2c1cnn2-c1ccc(C)cc1C = 11.2
# Tgondii IFNg, CCOc1ccc2c(c1)C(c1ccc(F)cc1)=NNC(c1ccc(Cl)cc1)=N2 = -34.5
# Tgondii IFNg, CC=Cc1ccc2n(c1=O)C[C@@H]1[C@@H](CO)[C@H](C(=O)NCc3cccc(OC)c3)N[C@H]21 (mixture of isomers) = 1.9
# Tgondii IFNg, Cc1cc(CN2Cc3ccccc3C3(CCN(c4cnccn4)CC3)C2)oc1C = 33.5
# Tgondii IFNg, COCC1C(=O)NCC12CCN(Cc1cc(C)on1)CC2 (stereo unspecified) = -14.1
# Tgondii IFNg, CCCC(=O)NCC1CCC(c2nc(C)ncc2-c2ccncc2)CC1 (stereo unspecified) = 13.6
# Tgondii IFNg, CCOc1ccc(C2c3[nH]c4ccccc4c3CCN2Cc2cnc(SC)nc2)cc1 (stereo unspecified) = 46.1

# The list continues:
SMILES,Tgondii IFNg
CCSc1nc(CC(=O)NCCS(=O)(=O)N(C)C)cs1,-2.3
Cc1ccc2c(c1)cc(C(=O)NCCc1nc3cc(C)c(C)cc3[nH]1)n2C,6.5
C[C@H](CO)N1C[C@H](C)[C@H](CN(C)C(=O)Nc2ccc(C(F)(F)F)cc2)Oc2ccc(NC(=O)C3CCCCC3)cc2C1=O,-44.1
CCc1cc(CN(C)C(=O)c2cnon2)on1,2.1
COc1ccc(-c2ccc(Nc3ccc(C(=O)N4CCCCCC4)cc3)nn2)cc1,-83.6*
O=C1NC(=Nc2ccc(Cl)cc2)SC1Cc1ccccc1 (stereo unspecified),-91.9*
Cn1c(C(=O)NCc2cccnc2Oc2ccc(F)c(F)c2)cc(=O)n(C)c1=O,-7.1
CC(=O)N1CCc2[nH]nc(-c3cccc(Cl)c3)c2C1,50.8
N#Cc1ccc(CSc2nnc(-c3ccncc3)o2)cc1,2.6
COCCn1c(C(=O)NCCCN2CCOCC2)cc2c1c1ccccc1n2C(C)C,-20.9
Cc1cc(C)n(C2CCN(Cc3ncc[nH]3)C2)n1 (stereo unspecified),-2.0
O=C(NCCc1c[nH]c2ccccc12)c1cc2occc2c(Nc2ccc(F)cc2)n1,-84.5*
O=C(C[C@H]1C=C[C@H](NC(=O)C2CCC2)[C@@H](CO)O1)NC1CCCCC1,-43.2
O=C(Nc1ccc(OC(F)(F)F)cc1)c1cnn(-c2ccc(Cl)cc2)c1C(F)(F)F,-86.3*
Cc1ncc(CO)c(CN2CCC(C(O)c3cccs3)CC2)c1O (stereo unspecified),-0.7
COCC(=O)N1C[C@@H](c2nc(C)no2)C[C@@H]2OCC[C@@H]21,31.4
CCCC(C)C(=O)Nc1ccc(OC)cc1NC(=O)C(C)C (stereo unspecified),3.4
COc1ccc(NC(=O)Cn2nc(C(F)(F)F)c(Br)c2C)cc1OC,14.3
Cc1[nH]cnc1-c1nccn1Cc1cc2ccc(F)cc2[nH]c1=O,-8.1
NC(=O)c1cnc2n1CCN(C(=O)c1ccccc1-n1cccn1)C2,2.7
CCCNC(=O)c1ccc2ccc(N3CCN(Cc4cccnc4)CC3)n2c1,-4.0
N#C[C@H]1[C@@H](c2ccc(-c3ccccc3)cc2)[C@@H](CO)N1S(=O)(=O)Cc1ccccc1,-55.8
C[C@H]1CN([C@@H](C)CO)C(=O)CCCn2nncc2CO[C@@H]1CN(C)C(=O)CCC(F)(F)F,0.9
CCCNC(=O)N1CC(=O)N2[C@H](CO)[C@@H](c3ccc(C#Cc4cccc(OC)c4)cc3)[C@@H]2C1,-18.4
CCCCNc1c(C(=O)OC)c(=O)[nH]c2c(Cl)cccc12,-23.3

# Other entries:
SMILES,Tgondii IFNg
CC1CCN(C(=O)Oc2ccccc2)CC1,-2.5
CN(Cc1ccc2ncccc2c1)C(=O)c1ccc(C2CCNC2)cc1 (stereo unspecified),10.8
CCn1c(=O)c(-c2nc(-c3ccccc3C)no2)c(O)c2ccccc21,-3.6
Cn1[nH]c(=O)c2cnc3c(F)cc(F)cc3c21,37.9
Cc1nc(COCC2CN(C)Cc3ncn(C)c32)cs1 (stereo unspecified),39.5
Cn1c(C(=O)C2CC2)cc2c1c1ccccc1n2CC1CC1,1.4
O=S(=O)(NCCc1csc(-c2ccc(Cl)cc2)n1)c1ccc2c(c1)OCCO2,-11.0
CCOc1cccc(OCc2nc(-c3ccco3)oc2C)c1,4.5
COCCN1C(=O)N(C2Cc3ccccc3C2)C(=O)C12CCN(Cc1nc3ccccc3nc1C)CC2,14.4
CO[C@H](CN(C)CC1CCOCC1)[C@H](C)CN(C(=O)Nc1ccc(F)cc1)[C@H](C)CO,51.5
CN(C)C(=O)N1Cc2nnn(C)c2C(COCc2ccccn2)C1 (stereo unspecified),1.8
COc1ccc(CN2CC3(CN(C(=O)Cc4ccccc4)C3)c3c([nH]c4cc(OC)ccc34)[C@H]2CO)cc1,?
COCCN1C(=O)CCc2cc(NC(=O)C3CCCC3)ccc21,51.2
c1ccc2c(-c3cc(NC4CCNCC4)nc4[nH]ccc34)n[nH]c2c1,-75.1*
Cc1nc(-c2ccccc2)nc2c1COCC21CCN(C(=O)c2ccccc2)C1 (stereo unspecified),-14.1
C[N+](C)(CF)CCO,3.0
Cn1nc(-c2c(-c3ccccc3)ncn2C2CCNC2)c2c(Cl)cccc21 (stereo unspecified),-10.3

# Part of the list above, as labelled records.
CCn1c(=O)c(-c2nc(-c3ccccc3C)no2)c(O)c2ccccc21
  Tgondii IFNg = -3.6

Cn1[nH]c(=O)c2cnc3c(F)cc(F)cc3c21
  Tgondii IFNg = 37.9

# Screening results: PubChem BioAssay, Broad Institute
